Source: PubChem (National Center for Advancing Translational Sciences (NCATS))
HSD17B inh: inhibitors of human HSD17B10 dehydrogenase. Potency, µM (highest dose often 57.1 µM), without a hit: top-dose activity change, negative = inhibition, usual class: inhibitors. AID 893. 75,000 compounds, 7.6% hits. Q99714. recombinant HSD17B10, NADH fluorescence kinetic; many of its hits are not listed in these tables; active means well fitted inhibition curve with a large enough effect; inconclusive means small, poorly fitted or top-dose-only effect; inactive means no such curve, though single readings can be large or run the other way;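 further: the protocol describes HADH2 (HSD17B10) and not the HSD17B4 of the title; nearly all actives have a fitted effect of over 70% in size; most hits overshoot -100% by far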
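His-tagged E. coli-expressed HADH2 at 20 nM in 100 mM Tris-HCl pH 9.0 with 0.01 % Tween-20, preincubated 15 min with compound at room temperature. Reaction with 1 mM NAD+ and 90 uM beta-hydroxybutyryl coenzyme A; NADH fluorescence (360/450 nm) read kinetically over 4 min, last minus first point.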
Active calls of the source: *; ? = inconclusive; [ ] = remark or other dose. On the % scale 0 is the no-effect control and ±100 the full control effect; potency means the concentration at half of the fitted maximal effect.

item	smiles	HSD17B inh
1	N#Cc1cccc(NC(=O)N2CC[C@@]3(CCCN(C(=O)c4cc(C(F)(F)F)cc(C(F)(F)F)c4)C3)C2)c1	-0.7%
2	Nc1nc(O)c2ncn([C@H]3CC[C@@H](CO)O3)c2n1	-1.7%
3	COC(=O)CCC(=O)Nc1cccc(Br)c1	-5.4%
4	CC(C)=NOC[C@@H](C)[C@H](OCc1ccccc1)C(C)C	5.6%[11.4 µM]
5	COc1ccc(CCN2CC(O)=C(c3nc4ccccc4c(=O)[nH]3)C2=N)cc1OC	31.6µM*
6	O=C1CC(N2CCN(Cc3ccc4c(c3)OCO4)CC2)C(=O)N1Cc1ccc(N2CCCC2=O)cc1 (stereo not drawn)	8.0%
7	CCS(=O)(=O)N1CCCC(C(=O)NCCCN2CCCC2=O)C1 (stereo not drawn)	-4.2%
8	N#Cc1sc2nc3c(c(-c4cccnc4)c2c1N)CCC3	-7.2%
9	COc1cc(C(=O)NC2CCN(Cc3nnnn3Cc3cccs3)CC2)cc(OC)c1OC	3.4%
10	CCOC(=O)c1ccc(CNC(=O)c2n[nH]c(=O)c3ccccc23)o1	3.5%
11	Cc1ccc(S(=O)(=O)Cc2ccc(C(=O)N3CCCC3)o2)cc1	8.5%
12	CCOC(=O)C(C)(C)[C@H](O)C(C)C	1.5%[11.4 µM]
13	Cc1noc(C)c1CSc1nnc2cc(C)c3ccccc3n12	-2.3%
14	CC(C)OC(=O)Nc1ccc(Oc2c(F)c(F)c(F)c(F)c2F)cc1	-4.4%
15	COc1cccc(C(=O)NC2=NCCS2)c1	-6.6%
16	CCOC(=O)C1CCCN(C(=O)c2c(-c3ccccc3Cl)noc2C)C1 (stereo not drawn)	1.7%
17	O=c1oc2ccccc2c(O)c1CN1CCCCC1	14.5%
18	Cn1c(C(=O)NCC2CCCO2)cc2c(=O)n(C)c3ccccc3c21 (stereo not drawn)	25.1µM*
19	CC1CCN(S(=O)(=O)c2ccc3c(c2)c(=O)c(C(=O)NC2CCCC2)cn3C)CC1	17.6%
20	Cc1ccc2c(c1)cc(CN(Cc1ccc3c(c1)OCO3)C(=O)c1cnccn1)c1nnnn12	8.9%
21	CCOC(=O)CCCCC(=O)c1[nH]c(=O)[nH]c1Cn1ccnc1	9.1%
22	O=C(Cn1nc(Cc2cccnc2)c2ccccc2c1=O)NCC1CCCO1 (stereo not drawn)	11.8%
23	CCn1c(SCC(=O)O)nnc1C1CCCCC1	9.9%
24	O=CNCC(=O)NC1CCCCCC1	7.3%
25	CC1=C(Sc2ccccn2)C(=O)NC(C)(C)C1	1.4%
26	CCN(CC)S(=O)(=O)c1ccc(Cl)c(C(=O)NC2CCCC2)c1	4.0%
27	O=C(C1CCN(Cc2ccc(OCc3ccccc3)cc2)CC1)N1CCCC1	6.1%
28	COc1ccccc1NC(=O)Cn1cnc2c(cnn2-c2ccc(C)c(C)c2)c1=O	-23.0%
29	CCSc1nc2ccccc2n1CC(=O)N1CCCCC1	8.8%
30	CCCCC=O	1.1%
31	CCc1ccc(C2CC(c3ccccc3C)n3nc(N)nc3N2)cc1 (stereo not drawn)	12.9%
32	CCCCNC(=O)OC1CCS(=O)(=O)C1 (stereo not drawn)	6.7%
33	N#CC[n+]1cc(-c2ccc(Cl)cc2)n2c1CCC2	6.3%
34	Cn1c(=O)c2cc(S(=O)(=O)NC(C(=O)N3CCCCCC3)c3ccccc3)ccc2n(C)c1=O (stereo not drawn)	-6.4%
35	CNC(=O)[C@@]1(Cc2ccccc2)C=C[C@@H](C)N1C(=O)OC	0.6%
36	CCn1c(SCCOc2ccc(OC)cc2)nnc1C(CO)NC(=O)c1ccc(OC)cc1 (stereo not drawn)	5.7%
37	COC(=O)CCN(C1CCCCC1)S(=O)(=O)c1ccc(S(=O)(=O)N2CCCCC2)cc1	-1.1%
38	COc1cccc(CC(C(=O)Nc2cc(C)ccc2C)c2nn[nH]n2)c1OC (stereo not drawn)	5.2%
39	O=C1c2ccccc2C(=O)N1CCCCn1c(=O)oc2ccccc21	-4.0%
40	O=c1[nH]c2cc(Cl)ccc2c(O)c1-c1cccc(Oc2ccccc2)c1	31.6µM*
41	O=C(NCCCN1CCc2ccccc2C1)C1CCN(c2nnc(-n3cccc3)s2)CC1	-5.3%
42	CCc1nn(C(C)C(=O)Nc2cccc(C)c2C)c(=O)c2cc3occc3n12 (stereo not drawn)	2.7%
43	COc1cccc(N(CC(=O)Nc2cccc(N(C)S(C)(=O)=O)c2)S(C)(=O)=O)c1	8.7%
44	CCCN=C(N)NCCC[C@H](N)C(=O)O	6.6%
45	COc1ccc(OC)c(NC(=O)CCN2CCCCC2)c1	-12.4%
46	O=C(CSc1nnc(-c2ccccc2)n1Cc1ccccc1)N1CCCC1	4.9%
47	Cc1ccc(S(=O)(=O)Cn2nnnc2C(C(C)C)N2CCN(Cc3ccco3)CC2)cc1 (stereo not drawn)	-5.2%
48	COC(=O)COc1ccc(S(=O)(=O)Nc2ccc(C(N)=O)cc2)cc1	-0.4%
49	Cc1csc(NC(=O)CSc2nnc(-c3ccncc3)n2C)n1	15.5%
50	COc1ccccc1N1CCN(C(=O)c2ccc(S(=O)(=O)N3CCCCCC3)cc2)CC1	-0.3%

Molecules from the list above with a COOH group (two):
item	smiles	HSD17B inh
23	CCn1c(SCC(=O)O)nnc1C1CCCCC1	9.9%
44	CCCN=C(N)NCCC[C@H](N)C(=O)O	6.6%

(list continues)
item	smiles	HSD17B inh
51	CCOc1ccccc1C1C(C#N)=C(N)Nc2onc(-c3ccccc3)c21 (stereo not drawn)	-11.1%
52	COc1cc(NC(=O)CSc2nc3ccccc3c(=O)n2C)ccc1NC(=O)c1ccco1	-1.7%
53	CCC(C)NC(=O)c1cc(-c2ccc(OC)cc2)on1 (stereo not drawn)	?
54	COc1ccccc1CNc1ccnc(-c2ccccc2OC)n1	?
55	Cc1occc1C(=O)NC(C)c1ccc2c(c1)OCO2 (stereo not drawn)	-12.2%
56	CCOC(=O)c1cc2sccc2n1Cc1ccc(C#N)cc1	-8.6%
57	Cc1nc2cnc(N(C)C)nc2n(CCc2ccccc2)c1=O	25.1µM*
58	Cc1cc(C)n(-c2nc3c(c(=O)[nH]c(=O)n3C)n2C)n1	-1.4%
59	CCOC(=O)C1C(=O)CC(C)(O)C(C(=O)OCC)C1c1cccc(OC)c1 (stereo not drawn)	3.5%
60	COc1ccccc1-n1cnnc1SCC(=O)Nc1ncc(Cl)cc1Cl	6.6%
61	CCC1CCCCN1C(=O)CSc1nnc(-c2ccc(Cl)cc2)o1 (stereo not drawn)	9.8%
62	COC(=O)[C@@]1(C)C[C@@H]1[C@@H](NC(=O)[C@@]1(C)C[C@@H]1[C@@H](NC(=O)[C@@]1(C)C[C@@H]1[C@@H](NC(=O)[C@@]1(C)C[C@@H]1[C@@H](NC(=O)OCc1ccccc1)c1ccccc1)c1ccccc1)c1ccccc1)c1ccccc1	18.0%
63	Cc1[nH]c2ccc(-c3nnc(SCC(=O)c4ccc(F)cc4)o3)cc2c1C	-28.8%
64	CC1=C(C(=O)N(C)C)C(c2ccc(Cl)c(Cl)c2)NC(=O)N1 (stereo not drawn)	-11.7%
65	CC(=O)c1cc(C#N)c(SCCC(C)C)nc1C	?
66	Clc1ccc(-c2nnc(SCc3ccon3)o2)c(Cl)c1	-4.1%
67	Cc1cnc(CNc2cc(-c3ccc4c(c3)OCO4)ncn2)cn1	?
68	O=C(CSc1nc2c(c(=O)n1-c1ccc(Cl)cc1)SCC2)NCc1ccco1	-15.9%
69	O=C1CSC(c2ccccc2)N1CC12CC3CC(CC(O)(C3)C1)C2 (stereo not drawn)	-2.8%
70	CCOC(=O)Cc1nnc(NC(=O)C(CC)Sc2nc(C)cc(=O)[nH]2)s1 (stereo not drawn)	-3.7%
71	CN(C(=O)c1ccc2c(c1)OCO2)C1(C(=O)NC2CCCC2)CCCCC1	6.8%
72	O=C(O)c1ccc(C(=O)O)c(C(=O)Nc2ccc3c(c2)Cc2ccccc2-3)c1	-3.7%[11.4 µM]
73	COc1ccccc1N(CC(=O)NC1CCCC1)C(=O)c1csnn1	8.8%
74	Cc1nc2nc(C)c(CCC(=O)Nc3ccc4c(c3)OCO4)c(C)n2n1	3.9%
75	COc1ccc(CNC2CCCCC2C)c(OC)c1 (stereo not drawn)	-1.0%
76	CC1CCN(C(=O)CSc2nnc(Cn3c(=O)sc4ccccc43)n2C)CC1	5.2%
77	Cc1cc(NC(=O)c2cc(-c3cccc(Cl)c3)on2)no1	-1.3%
78	Cc1cc2ccccc2n1CCNC(=O)COc1ccccc1	8.3%
79	CCOC(=O)c1ccc(NC(=O)CSC2=NC(=O)C(CC)C(=O)N2)cc1 (stereo not drawn)	-0.3%
80	OCCCNc1ncnc2[nH]ncc12	-1.8%[11.4 µM]
81	CCOc1ccc(OCC)c(C2C(C#N)=C(N)N(c3cccnc3)C3=C2C(=O)CC(C)(C)C3)c1 (stereo not drawn)	-1.3%
82	CN(C)C(=O)N1CCC(C(=O)NCc2ccc(F)cc2)CC1	5.7%
83	CCC(=O)N1CCN(c2ccc(Cl)cc2NC(=O)c2ccc3c(c2)OCCO3)CC1	-4.9%
84	CC(=O)c1cccc(NC(=O)c2cc(C(C)C)on2)c1	-2.7%
85	CCOc1ccccc1Oc1c(C)oc2c(CN3CCN(C)CC3)c(O)ccc2c1=O	31.6µM*
86	CCCCC(NC(C)=O)c1nc2ccccc2n1CCC (stereo not drawn)	0.3%
87	CC(C)(O)c1nnn(-c2ccccc2)c1C(F)(F)F	-0.3%
88	Cc1c(Cl)cc(C(C)(C)C)c(O)c1Cc1c(C)c(Cl)cc(C(C)(C)C)c1O	-6.9%[11.4 µM]
89	Cc1cc(C)nc(NC(=O)c2c(-c3c(Cl)cccc3Cl)noc2C)n1	-3.5%
90	O=S(=O)(Cc1ccc(Cl)cc1)N1CCCC1	10.9%
91	Cc1nc(NCc2ccco2)c2oc3ccccc3c2n1	25.7%
92	COC(=O)[C@@]1(Cc2ccc(OC)cc2)[C@H]2c3cc(C(=O)N4CCCC4)n(CCCNc4ncc(C(F)(F)F)cc4Cl)c3C[C@H]2CN1C(=O)c1ccccc1	14.5%
93	COc1ccccc1NS(=O)(=O)c1ccc(NC(C)=O)cc1	-0.6%
94	C=CCn1c(SCC(=O)NCc2ccc3c(c2)OCO3)nnc1C1COc2ccccc2O1 (stereo not drawn)	-0.2%
95	CCOC(=O)CSc1nnc(N)s1	-2.3%
96	Cc1nnc(SCC(=O)Nc2ccc3c(c2)OCO3)o1	-2.7%
97	O=C1CCC(=O)N1OCCCCOc1ccccc1	2.8%
98	CCOC(=O)N1CCC(N2C(=O)c3ccccc3C2Nc2cc(Cl)c(OC)cc2OC)CC1 (stereo not drawn)	10.2%
99	Cc1cc(=O)[nH]c2c1cnn2Cc1ccccc1	?
100	CCOc1ccc(-c2noc(CCC(=O)O)n2)cc1	6.5%

(cont.)
item	smiles	HSD17B inh
101	O=c1oc(-c2cccs2)nc2c1cnn2-c1ccccc1	31.6µM*
102	COc1cc(OC)cc(OCC(O)Cn2cnc3cc(C)c(C)cc32)c1 (stereo not drawn)	-8.1%
103	CCOC(=O)C1CCCN(CCCc2ccccc2)C1 (stereo not drawn)	10.3%
104	Cc1cc(S(=O)(=O)N2CCCC2)ccc1OCC(=O)NCc1ccco1	-6.3%
105	COCc1cc(C)nc(SCC(=O)Nc2cc3c(cc2C#N)OCO3)c1C#N	?
106	O=S(=O)(NC1CCc2ccccc21)c1ccc(S(=O)(=O)N2CCCC2)cc1 (stereo not drawn)	-8.4%
107	CC1CCc2nn(CC(=O)NC3CCCC3)cc2C1 (stereo not drawn)	4.1%
108	CCOc1ccc(C(=S)N2CCOCC2)cc1	-0.5%
109	O=C(CSc1nnc(CNC(=O)c2cccs2)o1)Nc1ccc2c(c1)OCO2	-2.0%
110	O=C(Nc1ccc(Br)cn1)c1ccc2nccnc2c1	-5.5%
111	C=CC1CO1 (stereo not drawn)	4.2%
112	COc1ccc(NS(=O)(=O)c2ccc(I)cc2)cc1N1CCN(C)CC1	-24.6%
113	O=C(NCCN1CCN(C(=O)NC2CCCCC2)CC1)NC1CCCCC1	11.9%
114	Cc1ccc(C)c(-n2c(SCC(=O)N3CCCC3)nnc2-c2ccccn2)c1	-13.1%
115	O=C(NC1=NCCS1)C1CC(=O)N(c2ccccc2)C1 (stereo not drawn)	-0.6%
116	FC(F)(F)c1cc(-c2ccco2)nc(-n2cnc3ccccc32)n1	?
117	COCCNC(=O)c1ccc(CS(=O)(=O)c2ccc(Cl)cc2)o1	5.3%
118	Nc1nc(CSc2nnc(-c3cccc(F)c3)n2-c2ccccc2)nc(N2CCOCC2)n1	12.0%
119	O=C1c2ccccc2CC1Sc1nnc(-c2ccccn2)o1 (stereo not drawn)	-12.3%
120	CCCCC#CC1C=CC(Oc2cc(OC)c(OC)c(OC)c2)C(COC(=O)OCC)O1 (stereo not drawn)	-3.7%[11.4 µM]
121	O=C(c1csnn1)N1CCC2(CCCN(Cc3ccccc3)C2)CC1	4.5%
122	CC(OC(=O)c1cc2sccc2n1C)C(=O)NCc1cccs1 (stereo not drawn)	0.9%
123	C[C@@H]1OC2C3=C(C(=O)[C@H]4O[C@@H]4[C@H]3O)[C@@H]1[C@H]1[C@H](C)OC=C3[C@H](O)[C@H]4O[C@H]4/C(=N\OCc4ccccc4)[C@@]321	-2.9%[11.4 µM]
124	CS(=O)(=O)N(CCc1ccccc1)CC(=O)N1CCc2ccccc2C1	20µM*
125	COC(=O)[C@@H](N)Cc1ccc(O)c(O)c1	70.0%[activator]
126	O=C(C1CCCCC1)N1CCN=C1SCc1cccnc1	7.1%

An excerpt; count on the stated rates, not on these rows.
